# Bioassay records (PubChem)
# T cruzi repl: inhibitors of intracellular T. cruzi growth, primary screen, luminescence, NIH3T3 host cells; T. cruzi beta-gal in NIH3T3, 90 h; inhibition, % (concentration not given with the values); 1.4% of 300,000 active; AID 1885, 2009;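 active means mean inhibition across valid replicates above about 55%, limit read from the data; inconclusive means mean below that limit but half or more replicates reach it; inactive means mean below it, under half of replicates reach it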;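 further: signal also drops with host cell toxicity which is not excluded here; 0% = plate median of DMSO wells and 100% = zero luminescence signal; higher percent means less beta-gal luminescence so fewer parasites; stock transfer was 50 nL into about 50 µL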
# Beta apoptosis: inhibitors of cytokine-induced beta cell apoptosis, primary screen, luminescence; INS-1E cytokine-induced death, ATP luminescence, 48 h; percent of positive-control rescue, neutral wells zero; protection from apoptosis, % (test concentration not listed); 0.8% of 300,000 active;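 active means all replicates at 75% or more, or half of them and the mean; inconclusive means half reach 75% but not the mean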;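 further: 0% = cytokine-treated negative control wells and 100% = positive control rescue; higher means more ATP so stronger rescue from cytokine killing; wells of about 40 µL received 100 nL stock; the first replicate is given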
# A1 inh: caspase 3/7 activation in MEF A1-2A-BIM cells, primary screen, A1 inhibitor project, cell-based, luminescence, HTS; Caspase-Glo 3/7 luminescence, 3 h; percent of clofoctol response, vehicle zero; caspase activation, % (no concentration beside the values); 0.066% of 330,000 active; AID 2462, 2010;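 active means over half of replicate activation scores above 10%, or exactly half above 10 with the replicate mean above 10; inconclusive means replicate mean below 10 yet half the replicates above 10; inactive means over half of replicates below 10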;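 further: wells of about 30 µL received 50 nL stock; many hits fall short of the cut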
# The depositor's hits bear a star; ? = inconclusive.
# Values run as follows: T cruzi repl, Beta apoptosis, A1 inh
- CCC(=O)N/N=C(\C)CC(=O)Nc1cccc([N+](=O)[O-])c1
    2, -8, -0.1
- COc1cc(/C=N/NC(=S)NCCN2CCOCC2)cc(OC)c1OC
    -2, 1, 0.8
- O=C(O)c1cccc(N/N=C/c2cc(Br)cc(Br)c2O)c1
    5, -6, -0.6
- COc1ccc(C2C=C(c3ccc(Br)cc3)Nc3nc(NS(C)(=O)=O)nn32)cc1 (centres undefined)
    -5, -2, 0.9
- COC(=O)N[C@H](CC(C)=O)c1ccccc1
    2, -6, ?
- CC(C)N=C1SCC(C)(/C=N/O)S1 (centres undefined)
    -9, 2, 0.5
- COc1ccc(-c2csc(NC(=O)COC(=O)c3ccc(Br)o3)n2)cc1
    -5, 6, -6.0
- Cc1nnc(N/N=C/c2cccc(OCc3ccc(Cl)c(Cl)c3)c2)n1N
    -1, 16, -0.1
- Cc1cc(-c2n[nH]c(=S)n2/N=C/c2cccc([N+](=O)[O-])c2)n[nH]1
    -16, -4, -0.3
- O=[N+]([O-])c1ccc(-n2cccc2/C=N/Nc2nc(N3CCCCC3)nc(N3CCCCC3)n2)cc1
    2, -6, -0.2
- Cc1ccc([N+](=O)[O-])cc1/C=N/Nc1nnnn1-c1ccccc1
    -13, -1, 0.4
- Cc1ccc(C2/C(=C(/O)c3cnn(-c4ccccc4)c3C)C(=O)C(=O)N2CCCN2CCOCC2)o1 (centres undefined)
    -1, 0, -0.3
- Cc1ccccc1OCC(=O)N/N=C/c1ccco1
    -1, -4, 0.9
- CC(O)COc1ccc(/C(=N/O)c2ccccc2)cc1 (centres undefined)
    -16, 0, -0.4
- O=C(O)c1ccc(/C=N/NC(=O)c2ccc(Br)cc2)cc1
    -38, -1, -0.3
- CC(=O)Nc1ccccc1NC(=O)C/C(C)=N/NC(=O)c1ccc([N+](=O)[O-])c(Cl)c1
    -2, -1, 0.1
- C/C(=N\OCC(=O)N/N=C/c1ccccc1O)c1cccs1
    -3, -4, 0.1
- COc1ccccc1CNC(=O)COC(=O)C1=COCCO1
    -9, -4, -0.2
- CC1=CCC(C(=O)N/N=C/c2cccs2)C(c2ccc(F)cc2)C1 (centres undefined)
    14, -1, -0.8
- COc1ccc(/C=C2\N=C(c3c(-c4ccccc4)noc3C)OC2=O)cc1OC
    -3, -4, -0.3
- Cn1ncc(Cl)c1C(=O)Nc1sc2c(c1C(N)=O)CCC2
    21, 26, -2.1
- Cc1ccc(-n2c(-c3ccco3)nc3nc4ccccc4nc32)cc1F
    9, 1, 0.1
- COc1ccc(-c2[nH]ncc2/C=N/NC(=O)c2cc(Br)ccc2O)c(OC)c1
    -17, -6, 1.1
- COC(=O)CCC(=O)OC1(C)C(=O)C2=CN(Cc3ccco3)C(c3ccc(OC)cc3)=CC2=C(Br)C1=O (centres undefined)
    -7, -8, 0.2
- CCN(CC)/C(=N/S(=O)(=O)c1ccc(C)cc1)c1ccccc1
    4, -3, 0.2
- O=C(O)c1ccccc1N/N=C\c1ccnc2ccccc12
    -7, 0, -14
- Cc1ccc(C)n1-c1ccccc1N
    1, -7, 0.1
- O=C(N/N=C/c1ccc(N2CCCCC2)o1)C(O)(c1ccccc1)c1ccccc1
    4, 5, 0.1
- CC1(N2CCOCC2)CC2(O)C(=[N+]1[O-])CCc1nonc12 (centres undefined)
    -29, -4, 0.6
- Cc1nn(C/C(C#N)=N\O)c(C)[n+]1N
    2, 0, 1.5
- CCO/N=C(\C)c1c(O)cc(C(C)C)n(-c2ccccc2)c1=O
    -25, 2, -0.9
- C/C(=N\n1nnnc1Nc1ccccc1)c1ccc(N)cc1
    -17, -7, 0.1
- Cc1ccnc(N2CCC(C(=O)Nc3ccc(Oc4ccccc4)cc3)CC2)n1
    7, -7, 0.5
- Cc1ccc(N(CC(=O)N/N=C/c2ccc(OC3CSC3)cc2)S(=O)(=O)c2ccccc2)cc1
    17, -6, -0.5
- CC1(C)CC(NC(=O)C23CCC(C)(/C(=N/O)C2)C3(C)C)CC(C)(C)N1 (centres undefined)
    2, -4, 0.5
- O=C(CSc1nnc(SCc2cccc3ccccc23)s1)c1ccc2c(c1)OCO2
    7, -7, -0.9
- CCn1c(=O)c(C(=O)Nc2ccsc2C(=O)OC)c(O)c2ccccc21
    3, -8, -0.1
- COc1ccc(OC)c(/C(O)=C/C(=O)C(=O)Nc2cc(C)ccc2OC)c1
    -11, 3, 0.6
- O=C(N/N=C/c1cccnc1)C1CCCN(S(=O)(=O)c2ccccc2)C1 (centres undefined)
    2, -2, 0.4
- C=CCN1/C(=C2/SC(=S)N(C)C2=O)Sc2ccccc21
    -2, 8, -1.4
- C/C(=N\OC(=O)c1ccc(C)cc1)c1sc(C)nc1C
    -1, -4, -0.3
- Cc1ccc(/C=N/NC(=O)c2cc(C)oc2C)o1
    -5, -8, -0.3
- C/C(CCN1CCc2nc(-c3ccccc3)c(-c3ccccc3)cc2C1)=N\O[C@@H](C)c1cn([C@H](CO)Cc2ccccc2)nn1
    0, -6, 0.1
- COc1ccc(C/C(C)=N/NC(=O)c2ccncc2)cc1
    -3, -2, 0.4
- O=C1C(Cc2cccc([N+](=O)[O-])c2)S/C(=N/N=C/c2ccco2)N1c1ccccc1 (centres undefined)
    0, -4, -0.1
- CCOC(=O)CC(NC(=O)Cn1nnc(-c2ccccc2C)n1)c1ccc(OC)cc1 (centres undefined)
    -4, -10, 1.4
- Cc1ccc(-c2cc(C(=O)N/N=C/c3cccnc3)n[nH]2)o1
    -16, 5, 0.3
- CCn1c2ccccc2c2cc(/C=N/NC(=O)c3cccc(C)c3)ccc21
    21, 20, -0.1
- O=C(N/N=C/c1cccc(OC(=O)c2ccc3c(c2)OCO3)c1)c1cncc(Br)c1
    15, -1, -4.1
- Cc1c(C(=O)O)c(C(=O)O)nc2ccc(N3CCOCC3)cc12
    -10, -3, 0.8
- CCOC(=O)C1=C(C)N=c2s/c(=C\c3ccc(OC(C)=O)c(OCC)c3)c(=O)n2C1/C=C/c1ccccc1 (centres undefined)
    -31, -2, -0.2
- S=c1[nH]nc(-c2ccccc2)n1/N=C/c1ccc(-c2ccccc2Cl)o1
    3, 7, -1.1
- O=C(CO/N=C/c1ccccc1O)N1CCc2ccccc21
    -12, -4, -3.7
- CCC(=O)Nc1ccc(C(=O)N/N=C/c2cc(Br)c(OC)cc2OC)cc1
    5, 5, -0.4
- CC1=NN(C(N)=S)C(=O)C1N=Nc1cccc2ccccc12 (centres undefined)
    -27, 14, 0.6
- COc1cc(/C=N/N=C2/C(=O)Nc3ccccc32)cc(OC)c1O
    -10, 0, 0.3
- CCOc1ccc(/C=N/NC(N)=S)cc1
    15, -3, -0.5
- COc1cccc(C2C3=C(N=c4s/c(=C\c5ccccc5O)c(=O)n42)c2ccccc2CC3)c1OC (centres undefined)
    -9, 7, 1.2
- CCc1ccc(/C=N\NC(=O)c2ccc(Br)o2)s1
    -13, 7, -4.3
- Cc1nn(-c2ccccc2)c(C)c1C(=O)OC/C(O)=C(\C#N)c1nc2ccccc2[nH]1
    -7, 3, 0.3

# No new results follow: 2 of the compounds above.
# Values run as follows: T cruzi repl, Beta apoptosis, A1 inh
- CCO/N=C(\C)c1c(O)cc(C(C)C)n(-c2ccccc2)c1=O
    -25, 2, -0.9
- C/C(=N\n1nnnc1Nc1ccccc1)c1ccc(N)cc1
    -17, -7, 0.1

# Record cards, as listed above.
# `CCc1ccc(/C=N\NC(=O)c2ccc(Br)o2)s1` is entered as T cruzi repl = -13; Beta apoptosis = 7; A1 inh = -4.3
# `Cc1nn(-c2ccccc2)c(C)c1C(=O)OC/C(O)=C(\C#N)c1nc2ccccc2[nH]1` is entered as T cruzi repl = -7; Beta apoptosis = 3; A1 inh = 0.3

# Later entries
# Values run as follows: T cruzi repl, Beta apoptosis, A1 inh
- Cc1c(/C=N\NC(=O)C2(C)CC2(Cl)Cl)cnn1C (centres undefined)
    -12, -18, 0.2
- O=C1c2ccccc2C(=O)N1Nc1ccccc1
    12, -2, -0.6
- O=C(CN1CCCCCC1)N/N=C/c1ccc(Cl)c(Cl)c1
    -20, 0, -0.9
- CC(C)CC1=NC(C(F)(F)F)(C(F)(F)F)c2c(n(CC(C)C)c(=O)[nH]c2=O)N1
    4, -1, 0.5
- O=C(N/N=C/c1ccc(OCc2ccccc2)cc1)c1cccs1
    4, -2, -2.3
- C/C(=N\NC(=O)CN(c1ccc(C)cc1)S(C)(=O)=O)c1cccs1
    -12, -11, -1.2
- Cc1ccc(S(=O)(=O)Oc2ccccc2/C=N/NC(=O)c2nn(C)cc2[N+](=O)[O-])cc1
    8, 0, -0.1
- CC1=C(C#N)C(=O)N(C2CCS(=O)(=O)C2)C(=O)/C1=C\c1ccc(C)o1 (centres undefined)
    0, 2, 1.2
- O=C1CSC(=S)N1/N=C/c1ccc(Cl)c([N+](=O)[O-])c1
    -4, 9, 0.4
- C/C(=N\NC(=O)CN1CCN(Cc2ccc(C)cc2)CC1)c1ccncc1
    -13, -1, -0.4
- CNC(=O)c1c(N)sc2c1CCCCC2
    1, 3, 0.1
- Cc1no[n+]([O-])c1COc1ccccc1/C=N/n1nnnc1N
    -30, -1, 0.7
- NC(CCCCc1ccccc1)c1cccc2ccccc12 (centres undefined)
    11, -1, 0.5
- COc1ccc(NC(=S)N/C(=N/CS(=O)(=O)c2ccccc2)c2ccccc2)cc1
    0, -9, -0.4
- COc1ccc(Cn2c(C)c(C)c(C#N)c2NC(=O)Nc2ccccc2)cc1
    -2, 3, 0.7
- Cc1ccc(-c2cc(C(=O)N/N=C\c3cnn(C)c3C)c3ccccc3n2)cc1C
    5, 5, -0.1
- Cc1ccc(/C=N/Nc2nc3ccccc3[nH]2)s1
    30, 15, -10
- COc1ccc(/C=N/NC(=O)Nc2nonc2N)cc1
    8, 1, -0.4
- COc1cccc(CN2C(=O)C3CCCN3c3ccc(S(=O)(=O)N4CCOCC4)cc32)c1 (centres undefined)
    15, 8, 0.8
- O=C(N/N=C/c1cn(-c2ccccc2)nc1-c1cc2ccccc2o1)c1ccncc1
    2, -1, -1.7
- Cc1ccsc1/C=N/NS(=O)(=O)c1ccc([N+](=O)[O-])cc1
    -1, -3, 0.1
- CCCOc1ccc(/C=N/NC(=O)c2ccc(Cn3cc([N+](=O)[O-])cn3)o2)cc1
    5, 1, -4.4
- N/C(=N\OC(=O)Cc1cccs1)c1cccc([N+](=O)[O-])c1
    10, 4, 0.9
- COC(=O)c1ccc(Cl)c(-c2ccc(/C=N/NC(=O)Nc3ccccc3)o2)c1
    7, -7, -0.2
- COc1ccccc1Nc1nc2ccc(C)cc2cc1C#N
    11, 1, 0.5
- O=C(N/N=C/c1ccc(OCc2ccccc2)cc1)c1cc[n+](Cc2ccccc2)cc1
    4, -3, -0.1
- Cc1ccc2nc(NCc3ccccc3)c(C=O)c(=O)n2c1
    4, -12, 0.3
- CCn1c2ccccc2c2cc(/C(C)=N/O)ccc21
    -3, -3, 0.6
- CC(C)(C)c1ccc(O)c(/C=N\O)c1
    -12, 2, 2.1
- COc1ccc(/C=N/NC(=O)CCN2CCN(c3ccccc3)CC2)c(OC)c1OC
    -8, 0, -0.2

# Results in Beta apoptosis (7 entries from above):
molecule	Beta apoptosis
C/C(=N\NC(=O)CN1CCN(Cc2ccc(C)cc2)CC1)c1ccncc1	-1
CC(C)CC1=NC(C(F)(F)F)(C(F)(F)F)c2c(n(CC(C)C)c(=O)[nH]c2=O)N1	-1
Cc1ccc(/C=N/Nc2nc3ccccc3[nH]2)s1	15
NC(CCCCc1ccccc1)c1cccc2ccccc12 (centres undefined)	-1
COC(=O)c1ccc(Cl)c(-c2ccc(/C=N/NC(=O)Nc3ccccc3)o2)c1	-7
CCCOc1ccc(/C=N/NC(=O)c2ccc(Cn3cc([N+](=O)[O-])cn3)o2)cc1	1
Cc1ccc2nc(NCc3ccccc3)c(C=O)c(=O)n2c1	-12

# Carrying on.
# Values run as follows: T cruzi repl, Beta apoptosis, A1 inh
- COc1ccccc1NS(=O)(=O)c1cccc(C(=O)N/N=C/c2ccc3c(c2)OCCO3)c1
    3, 3, 0.3
- CCN(CC)c1ccc(/C=N/OCC(=O)N2CCCc3ccccc32)cc1
    13, -2, 0.8
- COc1ccc(/C=N/Nc2nc(C)c([N+](=O)[O-])c(N(C)c3ccccc3)n2)cc1OC
    -1, 6, 1.2
- Oc1c(/C=N/Nc2cccc3cccnc23)ccc2ccccc12
    -11, -2, -4.2
- Oc1ccc(C=Nc2ccc3ncccc3c2)c(O)c1
    -20, 3, 1.3
- Cc1ccc(/C=C2\SC(=S)N(/N=C/c3cc([N+](=O)[O-])ccc3O)C2=O)o1
    5, -1, -1.5
- Cc1ccc(N/N=C/c2ccc(N3CCOCC3)cc2)cc1C
    15, -2, 0.4
- O=[N+]([O-])c1ccccc1/C=N/n1c(COc2ccccc2)n[nH]c1=S
    9, -7, 0.2
- O=C(N/N=C/c1cc(Br)ccc1O)Nc1ccccc1
    7, -11, 1.0
- O=C(Nc1ccccc1C(=O)N/N=C/c1ccco1)c1ccccc1
    1, 2, -6.8

# Only part of the results is shown, so the mix of outcomes need not match the whole.
